Screening results: PubChem BioAssay, Broad Institute
rRNA inh HTS = selective bacterial rRNA inhibition in E. coli; E. coli WT GFP vs humanized-ribosome RFP mutants, fluorescence, 24 h; stronger effect = lower value; DMSO median 0, no signal -100; GFP signal change (wild-type ribosome), % (no concentration beside the values); actives 1.6% (n = 350,000);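 active = significant combined selectivity score with lowered wild-type GFP, culture density cut under 30%, mutant RFP and density less affected; inactive = any of these conditions unmet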; also: one replicate is shown; some compounds called inactive have numbers as strong as hits
Beta cell apopt = beta cell apoptosis inhibition | INS-1E cytokine-induced death, ATP luminescence, 48 h; percent of positive-control rescue, neutral wells zero | protection from apoptosis, % (test concentration not listed) | actives 0.8% (n = 300,000);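 active = all replicates at 75% or more, or half of them and the mean; inconclusive = half reach 75% but not the mean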;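 also: 0% = cytokine-treated negative control wells and 100% = positive control rescue; higher means more ATP so stronger rescue from cytokine killing; wells of about 40 µL received 100 nL stock; the first replicate is given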
MLL AF4-AF9 inh = blocks AF4 peptide binding to human AF9; P42568; AlphaScreen, biotin-AF4 peptide binding to FLAG-AF9; inhibition, % at 10 µM; actives 0.47% (n = 350,000); AID 651704;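 active = every replicate reaching a set inhibition limit, whatever the replicate mean, cut at about 25% in these data; inconclusive = mean inhibition reaches that limit but some replicates miss it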;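 also: 0% = plate neutral control median and 100% = total signal loss; the record names both 10 and 1 µM as test concentration; the first replicate is given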
Target sequence (P42568 whole entry, looked up): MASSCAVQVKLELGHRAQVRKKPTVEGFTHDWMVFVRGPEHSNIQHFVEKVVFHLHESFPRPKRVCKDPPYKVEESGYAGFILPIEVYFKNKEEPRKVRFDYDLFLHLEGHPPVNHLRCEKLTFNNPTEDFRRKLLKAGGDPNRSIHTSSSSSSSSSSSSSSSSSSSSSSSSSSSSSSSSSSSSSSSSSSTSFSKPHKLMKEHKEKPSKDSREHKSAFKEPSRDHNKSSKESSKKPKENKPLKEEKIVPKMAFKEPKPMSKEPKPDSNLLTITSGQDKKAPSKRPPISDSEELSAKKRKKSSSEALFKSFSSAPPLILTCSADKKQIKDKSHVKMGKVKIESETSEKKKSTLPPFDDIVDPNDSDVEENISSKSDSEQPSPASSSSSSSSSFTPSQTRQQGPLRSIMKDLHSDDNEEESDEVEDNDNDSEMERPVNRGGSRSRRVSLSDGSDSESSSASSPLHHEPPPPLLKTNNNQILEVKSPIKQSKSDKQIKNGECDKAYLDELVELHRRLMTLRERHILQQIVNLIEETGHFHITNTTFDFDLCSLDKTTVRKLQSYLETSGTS
RanGTP-Imp inh = inhibitors of RanGTP-importin-beta interaction, primary screen, biochemical, FRET, CFP-Ran, YFP-importin-beta, homogeneous; cell-free CFP-Ran/YFP-importin-beta FRET ratio; inhibition, % (test concentration not listed); actives 1.1% (n = 300,000); AID 2216;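 active = most replicates above 15%; inconclusive = exactly half above 15%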;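 also: 0% = DMSO wells and 100% = Ran loaded with GDP instead of GTP; wells of about 40 µL received 100 nL stock; the first replicate is given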
ALR H2O2 inh = human ALR oxidase inhibition via reduced H2O2. purified ALR, DTT oxidation, H2O2 HRP-luminol luminescence. actives 3.8% (n = 290,000). inhibition, % (test concentration not listed). P55789. AID 485317;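 active = mean and each replicate at 75% or more; inconclusive = only one of the two met; inactive = neither met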;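 also: stock transfer was 7.5 nL into about 7.5 µL; 0% = neutral wells and 100% = wells with inactivated enzyme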
Target sequence (P55789 whole entry, looked up): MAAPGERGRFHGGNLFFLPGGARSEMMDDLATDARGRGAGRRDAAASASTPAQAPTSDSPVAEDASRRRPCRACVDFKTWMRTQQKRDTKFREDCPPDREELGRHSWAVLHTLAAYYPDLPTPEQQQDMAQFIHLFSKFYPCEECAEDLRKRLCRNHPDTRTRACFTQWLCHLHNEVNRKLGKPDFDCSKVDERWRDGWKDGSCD
T cruzi repl = blocks replication of Trypanosoma cruzi. T. cruzi beta-gal in NIH3T3, luminescence, 90 h. actives 1.4% (n = 300,000). inhibition, % (concentration not given with the values);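 active = mean inhibition across valid replicates above about 55%, limit read from the data; inconclusive = mean below that limit but half or more replicates reach it; inactive = mean below it, under half of replicates reach it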;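 also: signal also drops with host cell toxicity which is not excluded here; 0% = plate median of DMSO wells and 100% = zero luminescence signal; higher percent means less beta-gal luminescence so fewer parasites; stock transfer was 50 nL into about 50 µL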
Calb FLC = C. albicans growth modulation with fluconazole; C. albicans CaCi-2 (fluconazole-resistant clinical isolate) + fluconazole, Alamar Blue growth, 48 h; growth inhibition, % (no concentration beside the values); actives 0.57% (n = 300,000); AID 1979;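 active = most replicates above 75%; inconclusive = exactly half above 75%; inactive = most below 75%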;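 also: all wells also contain fluconazole at 8 µg/ml as a sub-toxic cotreatment; 0% = median of DMSO wells and 100% = median of geldanamycin control wells; wells of about 8 µL received 7.5 nL stock; the first replicate is given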
FGF22 binding = FGF22 (human) thermal shift binding | Q9HCT0 | recombinant FGF22 thermal shift, SYPRO orange fluorescence; percent of sucrose octasulfate shift, DMSO zero | calls only at 9.99 µM | actives 1.5% (n = 340,000);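 active = melting point raised past a set limit in the mean and every replicate; inconclusive = no clear call; three in four hits are not shown here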
Target sequence (Q9HCT0 whole entry, looked up): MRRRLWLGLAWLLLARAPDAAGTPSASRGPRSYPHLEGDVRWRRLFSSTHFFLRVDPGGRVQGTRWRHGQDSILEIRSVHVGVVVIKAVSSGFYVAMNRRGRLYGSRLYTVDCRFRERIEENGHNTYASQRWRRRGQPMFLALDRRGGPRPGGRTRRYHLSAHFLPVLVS
rRNA inh HTS OD600 = also measured in rRNA inh HTS; calls as there; OD600 change, %; measured here: OD600 growth;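 optical density of the mix in the first replicate; 0 = DMSO median and -100 = no signal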
rRNA inh HTS RFP = further read-out of rRNA inh HTS, marked with its call; RFP signal change, %; measured here: RFP humanized mutant strains;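 first replicate; 0 = DMSO median and -100 = no signal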
* = called active by the depositor; i = inactive; ? = inconclusive; · = no result given. Some of the compounds tested, so the mix of outcomes need not match the whole.

Codes – A = rRNA inh HTS; B = rRNA inh HTS OD600; C = rRNA inh HTS RFP; D = Beta cell apopt; E = MLL AF4-AF9 inh; F = RanGTP-Imp inh; G = ALR H2O2 inh; H = T cruzi repl; I = Calb FLC; J = FGF22 binding
#1 O=C(C1=C(O)C(=O)N(Cc2ccco2)C1c1cccc(Cl)c1)c1ccco1 (stereo not given)
  A: -4.1 | B: -32.5 | C: 1.0 | D: -18.3 | E: -2.6 | F: -4.3 | G: 0.7 | H: -22.0 | I: 33.9 | J: i

#2 Cc1cnc([N+](=O)[O-])n1CCOC(=O)c1cccc(F)c1
  A: -4.9 | B: -8.3 | C: 3.9 | D: -0.5 | E: 0.5 | F: 6.1 | G: -5.0 | H: -5.0 | I: -6.3 | J: i

#3 CCOc1ccc(OCc2ccc(C(=O)Nc3cccc(C)n3)o2)cc1
  A: -38.6 | B: -36.2 | C: -11.0 | D: 1.0 | E: · | F: -1.3 | G: -6.7 | H: 8.3 | I: -0.9 | J: ·

#4 CC(C)Oc1c(Br)cc(Br)cc1/C=N/NC(N)=S
  A: · | B: · | C: · | D: 13.4 | E: · | F: 1.9 | G: 1.2 | H: 66.9* | I: -17.3 | J: ·

#5 O=C(NCc1cccnc1)C(=O)NCC1OCCCN1S(=O)(=O)c1ccc(Cl)cc1 (stereo not given)
  A: -7.8 | B: 1.6 | C: -3.3 | D: -1.1 | E: -0.9 | F: 6.8 | G: -4.4 | H: -4.5 | I: -22.3 | J: i

#6 Cc1ccc(NC(=O)c2c(C)nn(-c3ccccc3)c2Cl)cc1
  A: -12.8 | B: -5.8 | C: -14.0 | D: 7.6 | E: 1.9 | F: 0.3 | G: 40.7 | H: -6.1 | I: -1.8 | J: i

#7 Cc1n[nH]c(=O)n1-c1ccc(OCc2ccccc2)cc1
  A: 5.8 | B: 4.3 | C: -3.5 | D: -2.5 | E: 2.6 | F: -2.2 | G: 1.2 | H: 3.2 | I: 4.1 | J: i

#8 O=C(Nc1ccc2c(c1)CCC2)c1cc2ccccc2o1
  A: -39.5 | B: -59.6 | C: -13.8 | D: 6.7 | E: · | F: -0.7 | G: 3.5 | H: -10.7 | I: 3.6 | J: ·

#9 CCc1cc2c3c(c(=O)oc2cc1O)CCCC3
  A: · | B: · | C: · | D: 5.4 | E: -1.7 | F: ? | G: 5.0 | H: 7.0 | I: 0.5 | J: ·

#10 NC(=O)[C@@H]1CCCN1C(=O)c1ccc2nc(Cc3ccccc3F)oc2c1
  A: 6.0 | B: 9.5 | C: 0.3 | D: -8.1 | E: 1.5 | F: -1.2 | G: 4.2 | H: -0.3 | I: 1.5 | J: i

#11 Cc1cc(=O)n(CCCO)c(O)c1C#N
  A: · | B: · | C: · | D: -3.6 | E: · | F: -7.4 | G: -41.3 | H: -14.0 | I: 6.3 | J: ·

#12 CC(=O)NCc1ccc(C(=O)COC(=O)COc2ccc(Cl)c(C)c2)s1
  A: -3.8 | B: -1.0 | C: 1.3 | D: -6.2 | E: -3.4 | F: · | G: -10.0 | H: · | I: · | J: i

#13 CC(=O)c1noc(C)c1C(=O)Nc1nccs1
  A: · | B: · | C: · | D: -3.5 | E: · | F: 1.1 | G: -1.8 | H: -0.7 | I: -7.5 | J: ·

#14 COc1ccccc1Nc1nc2c(s1)CCC2
  A: · | B: · | C: · | D: 8.7 | E: · | F: -0.1 | G: 40.0 | H: 30.3 | I: -25.0 | J: ·

#15 CCc1nnc(NC(=O)CN2C(=O)NC3(CC(C)CC(C)(C)C3)C2=O)s1 (stereo not given)
  A: 8.2 | B: 0.0 | C: 2.8 | D: -1.2 | E: 1.2 | F: -3.2 | G: -6.9 | H: -1.1 | I: 45.1 | J: i

#16 COc1ccc(NC(=O)c2cc(-c3cc(Cl)ccc3O)n[nH]2)c(OC)c1
  A: -4.3 | B: 7.5 | C: 0.4 | D: 5.6 | E: -3.1 | F: ? | G: -2.2 | H: -6.0 | I: 7.7 | J: i

#17 O=C(NCc1ccccn1)c1ccc(Cl)s1
  A: -1.1 | B: -1.4 | C: 1.1 | D: -3.9 | E: -3.0 | F: 3.2 | G: -8.5 | H: -1.9 | I: 3.2 | J: i

#18 O=C(c1ccccc1)c1cc2cc(Cl)ccc2[nH]1
  A: 6.8 | B: 2.4 | C: -1.9 | D: -2.6 | E: -1.4 | F: -1.5 | G: -1.0 | H: -12.4 | I: -12.5 | J: i

#19 Cn1cc(C(=O)Nc2ccc(F)c(F)c2)cn1
  A: · | B: · | C: · | D: 1.6 | E: · | F: 0.9 | G: -5.0 | H: -2.9 | I: 1.0 | J: ·

#20 O=C(/C=C/c1ccc(Br)cc1)NC(=O)c1ccccc1O
  A: -27.5 | B: -25.4 | C: 1.0 | D: -7.5 | E: -17.9 | F: -0.2 | G: 0.2 | H: -87.6 | I: ? | J: i

#21 CS(=O)(=O)c1ccc(C(=O)NC(Cc2ccccc2)c2ccccc2)cc1 (stereo not given)
  A: -0.7 | B: -24.1 | C: 2.7 | D: 1.6 | E: -25.9 | F: 0.0 | G: -1.5 | H: -1.0 | I: -4.8 | J: i

#22 O=C(O)c1ccc2c(c1)C(=O)/C(=C\c1ccco1)C2=O
  A: 10.1 | B: 13.6 | C: 4.0 | D: 2.1 | E: -2.4 | F: -5.5 | G: 32.8 | H: -7.9 | I: 16.2 | J: i

#23 O=C(COc1ccc([N+](=O)[O-])cc1)Nc1nc(-c2ccccn2)cs1
  A: -12.8 | B: -37.3 | C: -1.4 | D: · | E: -23.2 | F: 2.1 | G: · | H: 61.3* | I: 3.9 | J: i

#24 C/C(=C1/SC(N2CC(C)OC(C)C2)=NC1=O)c1ccccc1 (stereo not given)
  A: · | B: · | C: · | D: 1.1 | E: · | F: 3.1 | G: -3.5 | H: 0.8 | I: 7.4 | J: ·

#25 CN(C)c1cccc(C(=O)OCC(=O)N2CCc3ccccc3C2)c1
  A: -30.1* | B: -22.4* | C: -3.0* | D: 0.1 | E: 0.9 | F: 2.4 | G: -7.6 | H: -3.6 | I: -3.9 | J: i

#26 O=C(NN=Cc1cc(Br)c(O)c(Br)c1)c1ccccc1NS(=O)(=O)c1cccs1
  A: -24.8* | B: -10.4* | C: -0.6* | D: 1.0 | E: 0.8 | F: · | G: 89.3* | H: · | I: · | J: ·

#27 COc1cccc(/C=N/NC(=O)c2c(C)nc3ccc(Cl)cn23)c1O
  A: 2.2 | B: -0.3 | C: 1.2 | D: 122.7* | E: -0.1 | F: 2.4 | G: · | H: 19.6 | I: 103.5* | J: i

#28 Cc1cccc(C)c1OC(=O)CSc1nnc(-c2ccccc2)o1
  A: · | B: · | C: · | D: 0.4 | E: · | F: -1.0 | G: -14.0 | H: -1.8 | I: -0.2 | J: ·

#29 CC1(C)CC2(CCO1)OC(=O)CC2C(=O)Nc1ccc(Br)cc1 (stereo not given)
  A: -2.3 | B: -5.1 | C: -2.0 | D: -4.4 | E: 5.4 | F: -1.8 | G: -1.8 | H: -2.6 | I: -4.9 | J: i

#30 CC(Sc1ncnc2c1cnn2-c1ccccc1)C(=O)NCC1CCCO1 (stereo not given)
  A: -8.2 | B: -1.3 | C: 3.2 | D: -6.8 | E: -1.1 | F: 0.5 | G: 3.4 | H: -1.1 | I: 3.4 | J: i

Exported field by field: two of the compounds above.
[22] O=C(O)c1ccc2c(c1)C(=O)/C(=C\c1ccco1)C2=O
  rRNA inh HTS: 10.1	rRNA inh HTS OD600: 13.6	rRNA inh HTS RFP: 4.0	Beta cell apopt: 2.1	MLL AF4-AF9 inh: -2.4	RanGTP-Imp inh: -5.5	ALR H2O2 inh: 32.8	T cruzi repl: -7.9	Calb FLC: 16.2	FGF22 binding: i
[23] O=C(COc1ccc([N+](=O)[O-])cc1)Nc1nc(-c2ccccn2)cs1
  rRNA inh HTS: -12.8	rRNA inh HTS OD600: -37.3	rRNA inh HTS RFP: -1.4	Beta cell apopt: ·	MLL AF4-AF9 inh: -23.2	RanGTP-Imp inh: 2.1	ALR H2O2 inh: ·	T cruzi repl: 61.3*	Calb FLC: 3.9	FGF22 binding: i

Among those listed so far, four contain a furan ring, fused or not:
Codes – A = rRNA inh HTS; B = rRNA inh HTS OD600; C = rRNA inh HTS RFP; D = Beta cell apopt; E = MLL AF4-AF9 inh; F = RanGTP-Imp inh; G = ALR H2O2 inh; H = T cruzi repl; I = Calb FLC; J = FGF22 binding
#1 O=C(C1=C(O)C(=O)N(Cc2ccco2)C1c1cccc(Cl)c1)c1ccco1 (stereo not given)
  A: -4.1 | B: -32.5 | C: 1.0 | D: -18.3 | E: -2.6 | F: -4.3 | G: 0.7 | H: -22.0 | I: 33.9 | J: i

#3 CCOc1ccc(OCc2ccc(C(=O)Nc3cccc(C)n3)o2)cc1
  A: -38.6 | B: -36.2 | C: -11.0 | D: 1.0 | E: · | F: -1.3 | G: -6.7 | H: 8.3 | I: -0.9 | J: ·

#8 O=C(Nc1ccc2c(c1)CCC2)c1cc2ccccc2o1
  A: -39.5 | B: -59.6 | C: -13.8 | D: 6.7 | E: · | F: -0.7 | G: 3.5 | H: -10.7 | I: 3.6 | J: ·

#22 O=C(O)c1ccc2c(c1)C(=O)/C(=C\c1ccco1)C2=O
  A: 10.1 | B: 13.6 | C: 4.0 | D: 2.1 | E: -2.4 | F: -5.5 | G: 32.8 | H: -7.9 | I: 16.2 | J: i
